VDR inhibitor = Inhibitors of the vitamin D receptor (VDR): qHTS; VDR-SRC2-3 peptide fluorescence polarization, 2 h; Potency, µM, without a hit: max response, negative = inhibition, usual class: inhibitors; 0.93% of 400,000 active; Vitamin D3 receptor (Homo sapiens), P11473; active = well fitted inhibition curve with a large enough effect; inconclusive = small, poorly fitted or top-dose-only effect, or another doubt; inactive = no such curve, though single readings can be large or run the other way; note: series mostly up to about 120 µM
Target sequence (P11473 whole entry, looked up): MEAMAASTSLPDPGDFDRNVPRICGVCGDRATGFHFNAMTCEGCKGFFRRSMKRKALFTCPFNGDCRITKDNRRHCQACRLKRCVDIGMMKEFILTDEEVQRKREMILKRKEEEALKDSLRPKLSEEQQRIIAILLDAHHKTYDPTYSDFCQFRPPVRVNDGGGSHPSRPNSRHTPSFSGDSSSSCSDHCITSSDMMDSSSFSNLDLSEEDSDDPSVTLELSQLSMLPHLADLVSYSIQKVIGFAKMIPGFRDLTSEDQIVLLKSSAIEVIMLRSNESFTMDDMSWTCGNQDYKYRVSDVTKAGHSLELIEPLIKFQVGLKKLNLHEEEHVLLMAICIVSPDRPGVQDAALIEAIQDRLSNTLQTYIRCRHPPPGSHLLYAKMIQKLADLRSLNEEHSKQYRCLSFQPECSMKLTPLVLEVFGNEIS
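Fluorescence polarization assay measuring small-molecule disruption of VDR binding to the coregulator peptide SRC2-3. Compounds were pin-transferred (23 nl) into the reagent mix and incubated 2 h at room temperature before reading.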
* = called active by the depositor; u = inconclusive; & = joins results of further samples. % is set by controls: 0 for no effect and ±100 for the full control effect; potency is the fitted concentration of half-maximal effect. Some of the compounds tested (hit frequency here may not be typical).

SMILES | VDR inhibitor
O=C(c1cnccn1)N1CCC2(CCCN(Cc3nccs3)C2)CC1 | 8%
Cc1ccccc1SCC(=O)N/N=C/c1ccc(F)cc1 | -6%
CC1CN(C(=O)Cn2cc(S(=O)(=O)CC(=O)N(C)c3ccccc3)c3ccccc32)CC(C)O1 (stereo not given) | -7%
Cc1cn(CC(=O)NCCCn2ccnc2)c(=O)[nH]c1=O | 15%
CC[C@@H](C)[C@H](CN[C@H](CNC)C(C)C)NC[C@@H](C)c1ccc(CC(C)C)cc1 | -6%
Cn1c(=O)n(Cc2ccc(F)cc2)c(=O)c2c1nc1n2CCCN1C1CCCCC1 | 3%
Cc1ccc(NC(=O)Cn2cc(S(=O)(=O)c3ccccc3)c(=O)c3cc(F)ccc32)cc1 | -3%
Cc1ccc2nc(NC(=O)C3=NN(c4ccccc4)C(=O)CC3)sc2c1 | 14%
Cc1[nH]n(-c2ccccc2)c(=O)c1CCOC(=O)c1cccc(C(F)(F)F)c1 | 18%
Cc1cc(C)cc(NC(=O)CSc2nc3nccnc3c(=O)n2CCc2c[nH]c3ccccc23)c1 | -1%
Cc1cccc(NC(=O)c2ccc(F)c(S(=O)(=O)N3CCC4(CC3)OCCO4)c2)c1 | 9%&6%
CCOc1cc(NC(=S)Nc2cccc(C)c2)c(OCC)cc1NC(=O)CC(C)C | -7%
O=C(CCNS(=O)(=O)c1cccc(Cl)c1)OCC(=O)N1CCN(C(=O)c2ccco2)CC1 | -6%
CC(C)(C)[C@H]1C=C(C(=O)N2CCN(Cc3ccccc3)CC2)O[C@@H](OCc2ccc(CO)cc2)C1 | -9%
CC(NC(=O)c1ccc2c(c1)CCN2S(=O)(=O)c1ccc(Cl)cc1)c1ccccc1 (stereo not given) | 13%
O=C1C2CCCN2C(c2ccc(F)cc2)N1c1ccc(Cl)cc1 (stereo not given) | -14%
Cc1cc(NC(=O)c2cccc3c2C(=O)N(C2CCCCC2)C3)ccc1Br | 9%
O=C(Nc1ccc2nsnc2c1)N1CCCCC1 | -12%
CCOC(=O)C1CCCN(c2nc3ccccc3nc2C(C#N)C(=O)OCC)C1 (stereo not given) | -7%
CC(C)(C)OC(=O)N[C@@H](Cc1ccccc1)C(=O)NCC1CCC(C(=O)N[C@@H](CC(=O)O)C(=O)O)CC1 (stereo not given in full) | 14%
CC1C(=O)C(C)C(c2ccc3c(c2)OCO3)NC1c1ccc2c(c1)OCO2 (stereo not given) | 7%
Cc1[nH]c2ccc(-c3n[nH]c(=S)n3-c3ccc(Br)cc3)cc2c1C | -6%
CCOC(=O)Cn1ccc(NC(=O)c2ccc3c(c2)OCO3)n1 | -20%
CN(Cc1nc(Cc2ccccc2F)no1)[C@@H]1CS(=O)(=O)C[C@H]1O | -8%
O=C(Cc1ccccc1)NNC1CC(=O)N(c2ccc(Oc3ccccc3)cc2)C1=O (stereo not given) | 8%

Some of these compounds in order of the VDR inhibitor value, highest first:
smiles,VDR inhibitor
Cn1c(=O)n(Cc2ccc(F)cc2)c(=O)c2c1nc1n2CCCN1C1CCCCC1,3%
Cc1[nH]c2ccc(-c3n[nH]c(=S)n3-c3ccc(Br)cc3)cc2c1C,-6%
CN(Cc1nc(Cc2ccccc2F)no1)[C@@H]1CS(=O)(=O)C[C@H]1O,-8%
CCOC(=O)Cn1ccc(NC(=O)c2ccc3c(c2)OCO3)n1,-20%

In the list so far, two contain bromine.
SMILES | VDR inhibitor
Cc1cc(NC(=O)c2cccc3c2C(=O)N(C2CCCCC2)C3)ccc1Br | 9%
Cc1[nH]c2ccc(-c3n[nH]c(=S)n3-c3ccc(Br)cc3)cc2c1C | -6%

Taken from the entries so far, 2 compounds:
SMILES | VDR inhibitor
CC1C(=O)C(C)C(c2ccc3c(c2)OCO3)NC1c1ccc2c(c1)OCO2 (stereo not given) | 7%
Cc1[nH]c2ccc(-c3n[nH]c(=S)n3-c3ccc(Br)cc3)cc2c1C | -6%

The list continues.
SMILES | VDR inhibitor
COCc1ccc(-c2c(-c3ccccc3OC)sc3cc4c(cc23)OCO4)cc1 | -2%
O=C(NCC(=O)N1CCN(Cc2ccccc2)CC1)c1cc(Cl)cc([N+](=O)[O-])c1 | -10%
COc1cccc2cc(C(C)N(CCCN3CCOCC3)C(=S)Nc3cc(C)cc(C)c3)oc12 (stereo not given) | -3%
COc1ccccc1NC(CC(=O)c1ccccc1)C(=O)OCC(=O)c1ccc(C)cc1 (stereo not given) | 3%
CCOC(=O)N1C2=NC(C(=O)OC)=C(C(=O)OC)[C@@H]3N(C)c4ccc(OC)cc4[C@]23C[C@H]1C(=O)OC | -11%
O=C(O)c1cccc(Cl)n1 | 3%
COc1cc(OC)cc(-c2nc3nc(C)c(CCC(=O)NCc4ccco4)c(C)n3n2)c1 | -11%
CCC(CO)Oc1cc(NCc2ccccn2)c2ncn(C(C)C)c2c1 (stereo not given) | -2%
O=C(CSc1oc(-c2ccco2)nc1S(=O)(=O)c1ccc(Cl)cc1)c1ccccc1 | 12%
Cc1ccc(N/C(=N/S(=O)(=O)c2cccs2)c2ccccc2)c(C)c1 | -15%
COc1cccc(CNC(=O)COC(=O)c2c(C)nn(-c3ccccc3)c2Cl)c1 | 3%
O=C(CC1C(=O)NCCN1Cc1ccc(Cl)c(F)c1)NC1CCC1 (stereo not given) | -12%
Cc1cccc2c(C(=O)N3CCN(c4ccccn4)CC3)cc(-c3cccc(Br)c3)nc12 | -15%
Cc1ccc(C2CC(c3cccc(Cl)c3)n3nc(N)nc3N2)cc1 (stereo not given) | -12%
CC1CCN(C(c2ccccc2)c2nnnn2C(C)(C)C)CC1 (stereo not given) | -2%
Cc1cccc(N(CC(=O)NCCSc2ccc(Cl)cc2)S(=O)(=O)c2ccccc2)c1C | -6%
COC(=O)CSc1nc(-c2ccccc2)nc2ccc(F)cc12 | -4%
COc1ccc(/C=C/C(=O)NC2CCS(=O)(=O)C2)cc1 (stereo not given) | -3%
CCOC(=O)c1cccc(NS(=O)(=O)c2ccc(-c3coc(C)n3)cc2)c1 | 15%
O=C(NCc1ccco1)c1cc(S(=O)(=O)N2CCOCC2)ccc1Br | u
COc1ccc(CCNC(=O)CSc2nnc(-c3ccc(F)cc3)c3ccccc23)cc1OC | -29%
CCCCc1cc(=O)oc2c(CN3CCCC3)c(O)c(Cl)cc12 | u
CN1CCN(C(=O)c2cnn(-c3ccccc3)c2NC(=O)c2ccc([N+](=O)[O-])cc2)CC1 | -16%
NC(=O)CC(NC(=O)c1cccc(Br)c1)c1ccc(N2CCCCCC2)c([N+](=O)[O-])c1 (stereo not given) | -18%
O=c1cc2c(c(-c3ccccc3)n1Cc1ccccc1)[C@H](CCO)NC2 | -1%
Next entries follow:
SMILES | VDR inhibitor
c1ccc(-n2c(-c3ccncc3)nnc2-c2cccs2)cc1 | 9%
O=C(CNC(=O)c1[nH]cnc1C(=O)NC(c1ccccc1)c1ccccc1)OCc1ccccc1 | -17%
COC(=O)c1ccc(NC(=S)N2CCN(Cc3ccccc3Cl)CC2)cc1 | -5%
CCN(CC(=O)Nc1c(F)cccc1F)C(=O)CCC(=O)c1ccc(C)cc1 | 0%
Cc1cc(C(=O)N2CCc3ccccc3C2)c(C)o1 | -1%
CCOC(=O)c1oc2ccccc2c1NC(=O)c1ccc(S(=O)(=O)N(C)C)cc1 | -1%
Cc1ccccc1CC1(CO)CCCN(C(=O)c2cc(-c3ccccc3)no2)C1 (stereo not given) | -15%
O=C(c1ccc(Cl)c(Cl)c1)c1cnc(Nc2ccccc2)s1 | 9%
COc1cc(Nc2ccc(S(N)(=O)=O)cc2)c([N+](=O)[O-])nc1[N+](=O)[O-] | -9%
O=C(CCc1ccccc1)NC1(Cc2ccccc2)CCN(CCc2cccs2)C1=O (stereo not given) | -14%
O=C(NCc1ccc(F)cc1)C1CCN(S(=O)(=O)c2ccc3c(c2)CCCN3C(=O)C2CCC2)CC1 | 5%
OCCNc1nc(-c2ccccc2)nc2ccccc12 | 0%
C=CCn1c(=O)c(C(=O)NCCc2ccc(Cl)cc2)c(O)c2cc(OC)c(OC)cc21 | -6%
COc1ccc(NC(=O)CN(C)C(=O)c2ccccc2Sc2ncnc3sc(C)c(C)c23)cc1 | -1%
COCCn1c(-c2ccc(NC(C)=O)cc2)nc2c1c(=O)[nH]c(=O)n2CC(C)C | -1%
O=C(CCC(=O)c1cccs1)NCCc1ccc(F)cc1 | -9%
COc1ccc(N(CC(=O)NC2CC2)S(=O)(=O)c2ccccc2)cc1 | -2%
CC(=O)Nc1sc(NC(=O)c2ccc([N+](=O)[O-])cc2)nc1-c1cccs1 | -21%
C/C(Cl)=C\Cn1c(N2CCCC2)nc2c1c(=O)n(C)c(=O)n2C | 6%
NC(=S)Nc1ccc(S(=O)(=O)c2ccc(NC(N)=S)cc2)cc1 | -13%
CCn1c(CCCNC(=O)c2ccco2)nc2ccccc21 | -15%
Cc1ccc(N2CCN(S(=O)(=O)c3ccc(C)cc3)CC2)cc1 | 9%
CCc1ccccc1Nc1cc(C(=O)NCCCN(C)C2CCCCC2)c2ccccc2n1 | -4%
CC(C)C[C@H](NC(=O)c1nc[nH]c1C(=O)NC(c1ccccc1)c1ccccc1)C(=O)OCc1ccccc1 | -9%
Cc1c(NC(=O)/C(C#N)=C/c2c(N3CCCCC3)nc3ccccn3c2=O)c(=O)n(-c2ccccc2)n1C | -7%

Next section, starting with the last five of the part before.
SMILES | VDR inhibitor
CCn1c(CCCNC(=O)c2ccco2)nc2ccccc21 | -15%
Cc1ccc(N2CCN(S(=O)(=O)c3ccc(C)cc3)CC2)cc1 | 9%
CCc1ccccc1Nc1cc(C(=O)NCCCN(C)C2CCCCC2)c2ccccc2n1 | -4%
CC(C)C[C@H](NC(=O)c1nc[nH]c1C(=O)NC(c1ccccc1)c1ccccc1)C(=O)OCc1ccccc1 | -9%
Cc1c(NC(=O)/C(C#N)=C/c2c(N3CCCCC3)nc3ccccn3c2=O)c(=O)n(-c2ccccc2)n1C | -7%
Cc1cccc(C)c1NC(=O)C1(N2CCN(C(=O)c3ccco3)CC2)CCCCC1 | -19%
COc1ccc2sc(-c3ccccc3OC)c(-c3ccc(OCCN4CCCC4)cc3)c2c1 | -8%
CCc1nn(-c2cc(Oc3cccc4ccccc34)nc(-c3ccccc3)n2)c(N)c1C#N | -7%
CC(C)OCCCNC(=O)c1ccc(-n2c(-c3ccccc3)cc3c2CCCC3)cc1 | -3%
CCOP(=O)(O)c1ccccc1OCCOCCOc1ccccc1P(=O)(O)OCC | 1%
CCOC(=O)c1c(NC(=O)CC2Nc3cc(C)c(C)cc3NC2=O)sc(C)c1C (stereo not given) | 1%
COc1cccc(-c2noc(-c3cc4ccccc4oc3=O)n2)c1OC | 1%
Cc1ccc(C)c(N2N=C(C(=O)Nc3ccccc3N3CCOCC3)CCC2=O)c1 | -3%
Cc1ccc(OCc2cc(C(=O)N3CCN(C4CCCCC4)CC3)no2)cc1C | 13%
O=C(CSc1ccccn1)Nc1ccc2c(c1)oc1ccccc12 | -4%
CCOC(=O)c1ccc(-n2c(CCC(=O)O)ccc2-c2cccs2)cc1 | u
Cn1c(=O)c2c(ncn2CCCC(=N)N2CCOCC2)n(C)c1=O | -19%
COc1ccc(CCN2C(=O)c3cccnc3C2=O)cc1OC | -14%
CC1CCN(C(=O)c2cnn(-c3cccc(Cl)c3)c2C2CCN(C(=O)OC(C)(C)C)CC2)CC1 | 8%
Cc1ccc(C(=O)CSc2ncnc3ccccc23)o1 | -7%
O=C(COc1ccccc1)Nc1ccc(-c2ccc(N3CCOCC3)nn2)cc1 | -24%
CC12CCC(=O)N1C(C(=O)N1CCN(S(=O)(=O)c3ccccc3F)CC1)CS2 (stereo not given) | 4%
O=C(CCC1COc2ccccc2O1)Nc1ccccn1 (stereo not given) | -2%
COc1cc(Cl)c(C)cc1NC(=O)CSc1nnc(-c2cccnc2)n1Cc1ccco1 | -4%
CCC(C)NCCCOc1ccc([N+](=O)[O-])cc1 (stereo not given) | -1%
CC(C)CNC(=S)N(CCN(C)C)Cc1cc2cc3c(cc2[nH]c1=O)OCO3 | -24%
COCCOC(=O)c1c(NC(=O)CN(C)c2ccccc2)sc(C(N)=O)c1C | -24%
COc1ccc(N2CCN(CC(=O)Nc3nnc(-c4ccccc4)s3)CC2)cc1 | 8%
